High-throughput results: PubChem BioAssay, several laboratories
PABP FP inh: blocks human PABP binding to poly(A) RNA; fluorescence polarization; hit rate 1% among 290,000; inhibition, % at 35 µM; AID 2014; P11940;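 active = 50% or more with normal probe brightness, or confirmed in later tests; inconclusive = above 50% with abnormal brightness, or retests that disagree; inactive = below 50% or failed in later tests; about a fifth of its hits are not listed in these tables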;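 also: calls also rest on retests at 20 µM and on dose response follow-up; controls were probe without protein and protein plus probe with vehicle; some compounds called inactive have numbers as strong as hits; many hits fall short of the cut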
Yeast UUG start: yeast start codon fidelity modulation; S. cerevisiae UUG-firefly luciferase reporter, luminescence/redox ratio; activity score, % at 18.7 µM; AID 602363; hit rate 0.13% among 350,000;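 active = replicate mean at a twofold rise or more, about +100% in these data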;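 also: firefly luciferase made from a UUG start codon reports start codon fidelity; reporter light over untreated wells divided by growth signal over untreated wells; some hits fall short of that in this replicate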
MT1-MMP act inh: MT1-MMP (human) activation inhibition. P50281. hit rate 0.061% among 360,000. GFP/RFP ratio change, % at 20 µM. HT1080 RFP-PRO-GFP cells, GFP/RFP ratio fluorescence, overnight; percent of plate control window, DMSO zero;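 active = GFP/RFP ratio change of at least 30% with cell ATP level not reduced by more than half and red fluorescence within 50% of control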; also: strong numbers were not always called active
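Material: RFP-PRO-GFP reporter HT1080 cells. Dosing: single-point 20 µM compound, 1% DMSO. Controls: DMSO and RFP-L50D-GFP cell wells. Timing: cells overnight before dosing, compound overnight, 37 °C, 5% CO2. Measure: GFP/RFP fluorescence ratio.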
Env fusion inh: inhibitors of HIV Env-mediated cell fusion; HeLa-JRFL Env/CEM21 cell fusion, luciferase; inhibition, % at 12.3 µM; hit rate 1.1% among 360,000;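 active = mean replicate inhibition score of at least 50 and every replicate individually at or above 50; inconclusive = only one of the two criteria met; inactive = mean below 50 and not all replicates reaching 50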;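 also: 0% = plate neutral controls and 100% = maraviroc near 300 nM; one replicate is shown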
Rce1 inhib: inhibitors of yeast Ras-converting enzyme; yeast membranes, quenched prenylated peptide cleavage fluorescence; Q03530; calls only; hit rate 0.27% among 290,000;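 active = fall in fluorescence gain of 50% or more versus controls, with final raw signal at or below 3038400; inconclusive = same 50% fall but final raw signal above 3038400; inactive = fall in fluorescence gain under 50%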;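 also: plate controls were neutral control wells for no effect and wells lacking membranes for full effect; tested at 10 µM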
Target sequence (Q03530 whole entry, looked up): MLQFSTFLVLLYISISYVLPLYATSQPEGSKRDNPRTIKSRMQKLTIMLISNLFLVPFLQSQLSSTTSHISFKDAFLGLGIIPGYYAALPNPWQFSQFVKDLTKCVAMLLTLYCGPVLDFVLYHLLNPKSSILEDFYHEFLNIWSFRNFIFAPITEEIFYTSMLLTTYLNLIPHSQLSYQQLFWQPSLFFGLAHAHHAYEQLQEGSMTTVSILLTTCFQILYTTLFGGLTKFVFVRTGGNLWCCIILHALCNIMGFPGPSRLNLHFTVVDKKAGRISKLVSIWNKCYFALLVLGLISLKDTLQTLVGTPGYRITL
eIF4H inh: inhibitors of RNA binding by human eIF4H; Q15056; hit rate 0.94% among 290,000; inhibition, % at 35 µM; eIF4H fluorescence polarization binding assay;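 active = 50% or more with normal probe brightness, or confirmed in later tests; inconclusive = above 50% with abnormal brightness, or retests that disagree; inactive = below 50% or failed in later tests; about a fifth of its hits are not listed in these tables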;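 also: calls also rest on retests at 20 µM and on dose response follow-up; 0% = protein and probe with vehicle and 100% = probe without protein; strong numbers were not always called active; many hits fall short of the cut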
CSC inhib: blocks cancer stem cells; inhibition, % at 7.5 µM; hit rate 1.1% among 300,000; cancer stem cell-like cells viability, luminescence; AID 2717;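 active = mean at 75% or more and at least half the replicates too; inconclusive = mean and replicates disagree; tested in HMLE shEcad cells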;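 also: 0% = median of negative and 100% = median of positive control wells; the first replicate is given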
eIF4H inh retest: also measured in eIF4H inh; calls as there; inhibition, %; compound at 20 µM; confirmation average;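 mean of two retest wells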
PABP FP inh retest: further read-out of PABP FP inh, marked with its call; inhibition, %; compound at 20 µM; confirmation repeats;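 mean of two retest wells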
MT1-MMP act inh RFP: also measured in MT1-MMP act inh; calls as there; RFP signal change, %; measured here: RFP expression control read;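 0 = vehicle wells; hits needed this value within 50% of zero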
The depositor's hits bear a star; i = inactive; ? = inconclusive; / = not tested or not shown; & = joins results of further samples; [ ] = remark or other dose. Some of the compounds tested. The share of hits here may be higher or lower than overall.

SMILES	PABP FP inh	Yeast UUG start	MT1-MMP act inh	MT1-MMP act inh RFP	Env fusion inh	Rce1 inhib	eIF4H inh	CSC inhib	others
O=C(COC(=O)CNC(=O)C12CC3CC(CC(C3)C1)C2)NC1CCS(=O)(=O)C1 (stereo not given)	-3	/	0	1	1	i	0	-15
CCCn1c(=O)c2sccc2n2c(CCCC(=O)NCc3cccnc3)nnc12	14	3	-2	7	-5	i	-6	-15
COc1ccc(CC(=O)NC(C)c2nnc(SCC(=O)c3ccc(Br)cc3)n2C)cc1 (stereo not given)	8	-16	3	-3	-17	i	2	2
Cc1csc(NC(=O)c2cnccn2)n1	5	-13	8	9	-143	i	4	-3
CC(C)c1nc2sc3c(SCCN(C)C)ncnc3c2c2c1CCC2	/	-12	1	4	-4	/	/	/
CCOc1ccc(NC(=O)NCc2ccccn2)cc1	2	-14	0	4	58*	i	-6	12
NC(=O)C1CCN(CCC(=O)Nc2ccc3c(c2)CCC3)CC1	-15	/	-3	-4	10	i	-6	/
CN(C)c1cccc(NC(=O)c2ccco2)c1	-13	/	-2	5	23	i	13	-3
Cc1nnc(NC(=O)c2cccc(NC(=O)C(C)C)c2)s1	1	-13	0	2	/	i	2	-15
CCOC(=O)C1CCN(c2c(NCCCN(C)C3CCCCC3)c(=O)c2=O)CC1	-9	-14	0	2	1	i	0	-4
CCCCn1c(N)c(N(CCC(C)C)C(=O)CCN2C(=O)C3CC=CCC3C2=O)c(=O)[nH]c1=O (stereo not given)	/	/	0	-1	0	/	/	-3
O=C(c1cccc(S(=O)(=O)N2CCc3ccccc32)c1)N1CCN(CCO)CC1	/	-3	-5	2	2	/	/	-14
CCOc1ccc(C(O)c2nccn2C)cc1 (stereo not given)	-13	-8	1	4	-54	i	4	-7
COc1ccccc1NC(=O)c1c(N=Cc2cccc([N+](=O)[O-])c2)cnn1C	3	-15	-1	-1	-3	i	-3	-5
COc1cc(O)c(C(C)=O)c(CC(=O)O)c1	58*	-14	-4	3	/	i	96*	-7

2 entries drawn at random from those above:
SMILES	PABP FP inh	Yeast UUG start	MT1-MMP act inh	MT1-MMP act inh RFP	Env fusion inh	Rce1 inhib	eIF4H inh	CSC inhib	others
CCOc1ccc(C(O)c2nccn2C)cc1 (stereo not given)	-13	-8	1	4	-54	i	4	-7
CCCCn1c(N)c(N(CCC(C)C)C(=O)CCN2C(=O)C3CC=CCC3C2=O)c(=O)[nH]c1=O (stereo not given)	/	/	0	-1	0	/	/	-3

Next part
SMILES	PABP FP inh	Yeast UUG start	MT1-MMP act inh	MT1-MMP act inh RFP	Env fusion inh	Rce1 inhib	eIF4H inh	CSC inhib	others
Cn1nc(C(=O)NNC(=O)c2ccccc2F)c2ccccc2c1=O	/	-41	4	10	/	/	/	-8
O=C(NCc1ccc(F)cc1)C(=O)NCC1OCCN1C(=O)c1ccc(Cl)cc1 (stereo not given)	107	-3	5	-1	-20	i	6	-5	eIF4H inh retest=-8;PABP FP inh retest=-4
Cc1noc(NS(=O)(=O)c2ccc(NC(=O)Nc3ccc(Cl)c(Cl)c3)cc2)c1C	23	-8	6	1	/	i	-7	46
COc1cccc(-c2noc(N)c2C#N)c1	-8	-17	-2	-3	-116	i	2	-7
CCCCCC1(C(=O)OCC)CC(CSC(=N)N)OC1=O (stereo not given)	5	/	0	3	-143	i	-4	-5
COc1ccc(C(=O)N/C(=C/c2cccs2)C(=O)NC(C)(C)C)cc1OC	4	-5	2	1	-5	i	-6	1
CCn1c(=O)cc(SCC(=O)Nc2ccc3c(c2)OCO3)c2ccccc21	-2	/	4	2	/	i	0	11
Cc1cccc(-n2cc(CN3CCCN(C=O)CC3)c(-c3cccc(F)c3)n2)c1	-11	-18	-1	5	10	i	-2	2
Cc1ccc(Nc2nc(Cl)nc(NC3CCCCC3)n2)cc1	24	-19	-23	-13	-23	i	13	13
CC1CCN(CCC(=O)Nc2ccc(Cl)cc2)CC1	7	-4	3	3	5	i	6	-2
Cc1cccc(CCNC(=O)CCc2nc(-c3ccccc3F)no2)c1	-5	12	12	1	/	/	-6	-9
CSc1nnc(Cn2c(=O)sc3ccccc32)n1CCc1ccccc1	3	0	3	0	3	i	5	-2
NC(=O)NOCc1c(F)cccc1Cl	54*	-13	4	7	-28	/	6	1
CN(C)CCCN(Cc1ccc2c(c1)OCO2)C(=O)NC1CCCCC1	-10	/	-5	-4	27	i	-4	-16
Cc1ccc2nc(/C(C#N)=C/c3ccc(-c4ccccc4C(=O)O)o3)[nH]c2c1	?	-6	-130	3	-12	i	?	-8
O=C(CSc1nnc(-c2cccnc2)o1)Nc1ccccn1	6	-8	-1	5	/	i	3	6
COC(=O)Cc1[nH]c(Cl)nc1C(N)=O	0	/	/	/	-9	i	5	-17
Nc1ccc2nn(-c3cc([N+](=O)[O-])ccc3O)nc2c1	15	-12	7	2	-29	i	22	17
O=C(Nc1nnc(SCc2cccc3ccccc23)s1)C1COc2ccccc2O1 (stereo not given)	2	-8	0	0	-10	i	-17	56
O=C(O)C1C2CCC(CC2)C1C(=O)O (stereo not given)	/	-14	3	4	-8	/	/	/
CC(=O)c1cccc(NC(=O)N2CC(C)OC(C)C2)c1 (stereo not given)	-1	-11	-2	-1	/	i	4	-3
Cc1c(C(=O)Nc2ccc(S(=O)(=O)Nc3ncccn3)cc2)oc2ccc(Cl)cc12	0	-7	1	3	1	i	-9	5
Cc1oc(/C=N/NS(=O)(=O)c2ccccc2)cc1Br	-1	-16	-3	0	-33	i	43	6
CNCC[C@H](Oc1cccc2ccccc12)c1cccs1	-7	9	2	-3	/	i	-12	12&5
Fc1ccc(Cn2cnc3ccccc32)cc1	2	/	1	-2	-23	i	-2	-6
COC(=O)c1ccc(S(=O)(=O)NCc2ccc(S(N)(=O)=O)cc2)n1C	1	/	3	6	-4	/	-7	-8
CCCc1cc(=O)n2[nH]c(NCc3ccc(OC)c(OC)c3)nc2n1	-15	/	-3	6	7	i	-7	-1
Cc1nc(CC(=O)Nc2nc(-c3ccccc3)cs2)cs1	-2	-16	-1	0	-42	i	0	14
COc1ccc(S(=O)(=O)NCC2CCCN(Cc3ccc(O)cc3)C2)cc1 (stereo not given)	-2	-13	3	3	-2	i	-3	26
Cc1cc(C)n2nc(SCC(=O)NC3CCCCC3)nc2n1	/	-4	3	3	-9	i	/	-8
O=C(CCSCCc1ccccn1)Nc1nccs1	0	-22	-2	5	-7	i	-1	-8
C[C@H]1CN([C@@H](C)CO)C(=O)CCCn2cc(nn2)CO[C@@H]1CN(C)S(=O)(=O)c1ccc(Cl)cc1	/	-7&9&-4	10	1	8	/	/	/
CC(NC(=O)c1ccc2c(=O)n3c(nc2c1)CCCCC3)c1ccccc1 (stereo not given)	/	-10	5	1	6	/	/	/
Cc1c(NC(=O)Nc2cccc([N+](=O)[O-])c2)c(=O)n(-c2ccccc2)n1C	-4	-11	-3	0	-1	i	-12	-11
CS(=O)(=O)Nc1ccc(C(=O)NCc2ccco2)cc1	17	-23	-3	4	/	i	1	-5
N#CCCN(Cc1cccnc1)C(=S)NC(=O)c1ccccc1	/	-12	3	0	-8	/	/	-9
O=C(Cc1cccs1)N1CCN=C1SCc1ccccc1Cl	6	/	-2	1	13	i	2	-3
Cc1ccc(C)c(OCCn2ccnc2)c1	4	-24	-1	1	/	i	14	-12
C=CCSc1nc2sc(-c3ccccc3)cc2c(=O)n1N	-2	0	-2	2	/	i	-6	-1
CN(C)S(=O)(=O)c1cccc(C(=O)N2CCN(S(=O)(=O)c3ccc4c(c3)OCCO4)CC2)c1	/	-5	-2	-6	9	/	/	/
CN(C(=O)c1cccc(NC(=O)Cc2ccc(NC(=O)C3CCN(S(=O)(=O)c4cccc([N+](=O)[O-])c4)CC3)cc2)c1)C1CC1	/	-4	2	-1	20	/	/	/
Cc1cc(C)c(S(=O)(=O)ON2C(=O)c3ccccc3C2=O)cc1C	17	-31	1	6	-36	i	0	10
CCSc1nnc(NC(=O)c2nc3nc(C)cc(C)n3n2)s1	1	-21	3	4	-12	i	4	-2
COc1ccc(Cc2c(-c3cccc(Cl)c3)nc3ccc(Cl)cn23)c(C)c1	/	-18	-3	-1	-14	/	/	/
CCC[C@H]1CN(Cc2cccnc2)C(=O)[C@@H]1CC(=O)Nc1ccc(Br)cc1	/	1	1	-4	12	/	/	/
NS(=O)(=O)c1ccc(CNC(=O)CC23CC4CC(CC(C4)C2)C3)cc1	4	-5	4	0	/	i	-1	2
COc1ccccc1C(=O)NCCC(=O)NCc1ccccn1	/	-11	-1	3	/	/	/	2
Nc1ccc2nc(SCc3ccc([N+](=O)[O-])cc3)sc2c1	-1	-6	-2	-9	/	i	-3	/
COc1ccc(-n2cc(CNCC3CCOCC3)c(-c3cccc(F)c3)n2)cc1	-6	/	-10	0	10	i	1	7
COCCNC(=S)N1CCC(c2nc(-c3ccc(N(C)C)cc3)no2)CC1	0	/	1	-2	-6	i	-3	5
Cc1ccc(S(=O)(=O)n2ccc(OC(=O)c3cccs3)n2)cc1	1	1	1	3	-42	i	-2	-5
CC(C)(C)[C@@H]1C=C(C(=O)N2CCN(Cc3ccc4c(c3)OCO4)CC2)O[C@H](OCc2ccc(CO)cc2)C1	-3	1&-11	0	-6	-5[16.7 µM]	i	-13	-1
COc1c(F)c(F)c(C(=O)Nc2cccc(Cl)c2N2CCOCC2)c(F)c1F	4	5	-5	-9	/	/	2	/
CCN1CCN(C(=O)c2ccc(-c3nc4ccccc4s3)s2)CC1	1	/	3	2	-26	i	11	43
CCOC(=O)N1CCN(C(=O)c2cnn3c(C(F)(F)F)cc(-c4cccs4)nc23)CC1	-2	17	0	3	17	i	-10	-4
CN1CCN(C(=O)c2cnn(-c3ccccc3)c2NC(=O)c2cccs2)CC1	-11	-5	0	7	5	i	-7	-5
O=C1NCCN1CCNc1nc(NCc2ccccc2)nc2ccsc12	/	36	-7	4	3	/	/	/
Cc1nnc2ccc(N3CCOCC3)nn12	-3	-15	2	4	/	i	-1	-17
N#CCSc1nc2ccccc2c(=O)n1-c1ccccc1	-4	-20	-2	-10	-13	i	-4	17
Cc1ccc(CC(=O)N2CCN(C(=O)c3ccco3)CC2)cc1	8	/	-1	6	5	i	-3	-1

More structures:
SMILES	PABP FP inh	Yeast UUG start	MT1-MMP act inh	MT1-MMP act inh RFP	Env fusion inh	Rce1 inhib	eIF4H inh	CSC inhib	others
CCNC(=O)C1(C)CCCN(C(=O)Cc2ccc(OC)c(OC)c2)C1 (stereo not given)	/	-6	10	9	i	/	/	/
Cc1ccc(-c2nnn(CC(=O)N(c3ccc(F)cc3)C(C(=O)NC3CCCC3)c3ccncc3)n2)o1 (stereo not given)	-6	-16	0	3	14	i	-5	-1
CC(=O)Nc1c(-c2ccc(Cl)cc2)c(=O)c2ccccc2n1C	6	-5	-3	1	5	i	-1	/
Cc1ccc(-n2cc(-c3ccccc3)c3c(N4CCN(C)CC4)ncnc32)cc1	-7	/	-10	-9	12	i	-12	44
CCN(CC)CCn1c(=N)n(CCO)c2ccccc21	14	-5	1	1	/	i	-5	-8
CCn1cc(C(=O)N[C@@H](C)C(=O)NCCCO)c(=O)c2cc3c(cc21)OCO3	-13	-6	-1	-2	-10	i	1	-3
Cc1cccc(-c2ccc3[nH]c4c(c3c2)CCN2C[C@@H]([C@H](C)OC(=O)Nc3ccccc3C)[C@@H](N(C)C(=O)Nc3ccccc3C)C[C@@H]42)c1	/	-7	-5	-1	-30	/	/	/
Cc1cc(N2CCCC2=O)cc(C)c1CN1C(=O)c2ccccc2C1=O	9	-13	-4	-6	14	i	-1	2
